Assay outcomes from PubChem.
PMP22 txn prim = Cell-based coincidence reporter assay to measure PMP22 gene transcription in S16 Pmp22-F2sN cells - Primary screen; S16 Pmp22-F2sN Schwann cells (luciferase reporters placed in the Pmp22 gene), FLuc/NLuc coincidence luminescence, 24 h; Potency, µM (highest dose often 57.5 µM), inactives show at the top dose activity change, negative = inhibition, hits mostly inhibitors; hit rate 2% among 43,000; active = clear falling dose curves in both reporters; inconclusive = both reporters move, but less clearly or upward; inactive = either reporter flat; the % is the NLuc reporter signal; note: % is set by controls: 0 for no effect and ±100 for the full control effect; some results filed as inactive show a strong effect at the top dose
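Rat S16 Pmp22-F2sN cells, 500-1,000/well in phenol red-free DMEM + 10% FBS, compound-treated 24 h (37C, 5% CO2). Luminescence: FLuc read, Stop&Glo added, NLuc read.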
HTT prom inh = Primary qHTS for Identification of Small Molecule Inhibitors of Huntingtin Promoter Activity; hit rate 0.93% among 48,000; HEK293 HTT promoter firefly luciferase reporter (activity 0% = vehicle and -100% = no light), 24 h; Potency, µM (top dose mostly 57.5 µM), for the others: at the top dose activity change, negative = inhibition, most hits filed as inhibitors; active = well fitted inhibition curve with a large enough effect; inconclusive = small, poorly fitted or top-dose-only effect; inactive = no such curve, though single readings can be large or run the other way; note: nearly all actives have a fitted effect of over 50% in size
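Firefly luciferase signal from promoter-reporter HEK293 cells was scaled between vehicle (0%) and zero RLU (-100%). Compounds were tested at final concentrations of up to 57.5 uM over 24 h at 37 degrees C. PTC124 at 50 uM final served as control inhibitor.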
* = called active by the depositor; ? = inconclusive; · = no result given; [ ] = remark or other dose. Potency is the fitted concentration of half-maximal effect.

mol,PMP22 txn prim,HTT prom inh
COc1ccc(CNC(=O)CCCn2nc(C)c3c(C)n(-c4ccccc4)nc3c2=O)cc1,-4%,3%
Cc1ccc2nc(-c3ccc(C)s3)c(Nc3ccc4c(c3)OCCO4)n2c1,-25%,28%
CCOc1ccc(Nc2nc(C)c(NC(=O)c3cccc(F)c3)c(Nc3ccc(OCC)cc3)n2)cc1,?,?
Cc1ccccc1C(=O)N1c2ncnn2C2(CCCCC2)[C@@H]2CCCC[C@@H]21,17%,-17%
CCCCC(=O)Nc1nnc(S(=O)(=O)N2CCCCCC2)s1,-5%,4%
O=C(CCS(=O)(=O)c1ccc(Br)cc1)Nc1ccc(Cl)c(C(F)(F)F)c1,?,-25%
Cc1cc(C)cc(NC(=O)CSc2nc(=O)n(CCN3CCOCC3)c3c2CCC3)c1,-1%,-14%
COc1ccc(OC)c(N(C)S(=O)(=O)c2ccc3c(c2)NC(=O)CC(=O)N3)c1,1%,-4%
O=C(/C=C/c1ccccc1Cl)N1CCC(c2nc3ccccc3o2)CC1,-40%,-20%
OC[C@H]1O[C@@H](n2cnc3c(=S)nc[nH]c32)[C@H](O)[C@@H]1O,·,?
CCCn1c2ccc(F)cc2c2nnc(SCCN3CCCCC3)nc21,?,-16%
CCOc1ccc(NC(=O)c2cn3c4c(ccc(Cl)c4c2=O)OC(C)C3)cc1 (configuration not stated),-16%,-8%
CCOc1ccc(S(=O)(=O)N(CC(=O)NCCSc2ccc(C)cc2)c2ccccc2)cc1,-24%,-8%
CCC(Sc1nc2nccnc2c(=O)n1Cc1ccc(F)cc1)C(=O)NC1CCCCC1 (configuration not stated),-15%,-9%
N#CC1=C(N)N(c2cccc(Cl)c2)C2=C(C(=O)CCC2)C1c1cc(CN2CCOCC2)cs1 (configuration not stated),17%,-1%
CCCc1ccc(S(=O)(=O)N2CCC(Oc3ccc(-n4cnnn4)cc3)CC2)cc1,49%,-33%
Cc1ccc2c(=O)cc(C(=O)Nc3ccc(S(=O)(=O)Nc4ncccn4)cc3)oc2c1C,-9%,18%
COc1ccccc1N1CCN(CCCNC(=O)c2nnc(Cc3c(F)cccc3Cl)o2)CC1,13µM*,-26%
Cc1ccc2c(c1)c1c(c(=O)n(-c3cccc(Cl)c3)c(=O)n1CC(N)=O)n2C,-2%,-13%
Cc1ccc(CNC(=O)CS(=O)(=O)c2cccc3nsnc23)cc1,-2%,2%
CCOc1ccc(NC(=O)CN2C(C(=O)OC)=C(c3ccccc3)c3cc(Cl)ccc3S2(=O)=O)cc1,6%,-3%
CCOc1ccc(CCNC(=O)c2ccc3c(c2)N(Cc2cccc(Cl)c2)C(=O)c2ccccc2S3(=O)=O)cc1OCC,-13%,-23%
COc1cccc(-c2nc(SCC(=O)Nc3ccc4c(c3)OCCO4)c(-c3ccc(C)cc3)[nH]2)c1,?,?
CCOc1ccccc1C(=O)Nc1ccc2c(c1)N(C)C(=O)c1ccccc1S2,?,-26%
COCCNC(=O)c1c(NC(=O)c2cc(=O)c3cc(C)cc(C)c3o2)sc2c1CCCC2,1%,-10%
CCOc1ccc(CNC(=O)c2cc3oc4ccccc4c3n2C)cc1,7%,?
CCCCN(CC)CCNC(=O)c1c(C)oc2ncnc(N3CCOCC3)c12,-19%,8%
CC(=O)N1CCCc2cc(S(=O)(=O)N3CCN(c4cccc(C(F)(F)F)c4)CC3)ccc21,?,?
Cc1cccc(NC(=O)CSc2nc(-c3ccco3)cc(C(F)(F)F)n2)c1C,-3%,-13%
COc1ccc(OC(=O)N(CC(=O)O)Cc2ccc(OCCc3nc(-c4ccccc4)oc3C)cc2)cc1,·,-6%
COc1ccc(NC(=O)CSc2nc3nc(C)cc(C)n3n2)cc1OC,-10%,-18%
CCOc1ccc(CCNC(=O)c2nnc(Cc3cc(OC)c(OC)c(OC)c3)o2)cc1OCC,-20%,-20%
COc1cc(N2C(=O)CSC23C(=O)N(Cc2ccc(C)cc2)c2ccccc23)cc(OC)c1OC (configuration not stated),?,?
CC(C)c1ccc(NC(=O)CN2C(=O)COc3ccc(S(=O)(=O)N4CCCCCC4)cc32)cc1,-27%,?
CCOC(=O)N1CCC(=C2c3ccc(Cl)cc3CCc3cccnc32)CC1,·,?
Cc1oc2ncn(C)c(=O)c2c1C(=O)NCCCN(Cc1ccccc1)C(C)C,7%,5%
Cc1cc(C)nc(NS(=O)(=O)c2ccc(NC(=O)c3cc(=O)c4ccc(C)c(C)c4o3)cc2)n1,-33%,16%
CCN(Cc1ccccc1)C(=O)c1nn(-c2ccc(OC)cc2)c(=O)c2c1c1ccccc1n2C,19µM*,?
CSC1=NC2(CCN(C(=O)NC3CCCCC3)CC2)N=C1c1ccc(C)cc1,7%,-16%[11.5 µM]
CN(C)c1ccc(CNS(=O)(=O)c2ccc(-c3cc(C(F)(F)F)on3)s2)cc1,0%,-5%
O=c1[nH]c2ccc(NCc3ccc(-c4cccc(Cl)c4)o3)cc2[nH]1,?,?
Cc1c(Cl)cccc1NC(=O)c1ccc2nc(C(C)C)oc2c1,?,?
COc1ccc(NC(=O)C2CCN(c3nc(-c4ccc(OC)c(OC)c4)no3)CC2)cc1Cl,-32%,-9%
Cc1nc(N2CCCC2)c2c(C(=O)N3CCN(c4cc(Cl)ccc4C)CC3)c(C)oc2n1,?,?
CCOc1ccc(OCC)c(NC(=O)C2CCCN(S(=O)(=O)c3ccc(C)cc3)C2)c1 (configuration not stated),-19%,-14%
Cc1ccc(Cn2ccnc2SCC(=O)NCc2ccccc2Cl)cc1,?,-17%
CC(C)(C)[N+]([O-])=Cc1ccc(S(=O)(=O)O)cc1S(=O)(=O)O,·,-6%
Cc1c(CCC(=O)N2CCCCC2)c(=O)oc2cc3occ(C(C)(C)C)c3cc12,?,-10%

Single records (already shown).
Listed for Cc1c(Cl)cccc1NC(=O)c1ccc2nc(C(C)C)oc2c1 → PMP22 txn prim = ?; HTT prom inh = ?
Listed for CC(C)(C)[N+]([O-])=Cc1ccc(S(=O)(=O)O)cc1S(=O)(=O)O → PMP22 txn prim = ·; HTT prom inh = -6%

The listing continues.
mol,PMP22 txn prim,HTT prom inh
O=C(NC1CC1)c1ccc(Cn2c(SCc3ccccc3F)nc3cccnc32)cc1,?,?
CCOC(=O)N1CCN(c2ncc3c(n2)CC(c2ccc(Cl)cc2)CC3=O)CC1 (configuration not stated),-17%,-18%
COc1cccc(NC(=O)CSc2nccn2Cc2ccc3c(c2)OCO3)c1,-3%,8%
CCOC(=O)c1c(C)sc(-c2c(-c3ccc4c(c3)OCCO4)[nH]c3c2c(=O)[nH]c(=O)n3C)c1O,?,?
Cc1ccc(NS(=O)(=O)c2c(C)nc3sc(C)cn3c2=O)c(C)c1,-25%,?
CN(C(=O)CSc1nnc(-c2ccc([N+](=O)[O-])cc2)o1)c1ccccc1,-13%,-3%
COC(=O)c1ccc(NC(=O)c2cc3cc4ccc(OC)c(Cl)c4nc3s2)cc1,-13%,0%
CCOc1ccc(OCC)c(NS(=O)(=O)c2cc(-c3cc(C)no3)ccc2C)c1,-13%,-13%
CC(C)CS(=O)(=O)c1oc(-c2ccc(F)cc2)nc1S(=O)(=O)c1ccccc1,?,?
Cc1ccccc1NC(=O)c1cc2sccc2n1Cc1ccc(F)cc1,18%,-19%
COc1ccccc1N1CCN(C(=O)Cc2c(C(=O)O)c(C)cn2C)CC1,9%,-13%
CCN1CCc2nc3sc(C(=O)Nc4cccc(Cl)c4C)c(N)c3cc2C1,12µM*,-29%
COc1ccc2[nH]c3c(c2c1)CCN(C(=O)CCC1CCCC1)C3c1ccc(F)cc1 (configuration not stated),?,-25%
CCc1ccccc1NC(=O)CSc1ncc2c(n1)-c1cc(Cl)ccc1N(Cc1ccccc1)S2(=O)=O,10%,-16%
CCN(c1ccccc1)c1nnc(NC(=O)Nc2ccccc2F)s1,?,-30%
COc1ccc(C2=C(C(C)=O)Sc3nnc(-c4ccc(Cl)cc4)n3N2C(C)=O)cc1OC,?,-16%

Among those listed so far, two have a tert-butyl group:
mol,PMP22 txn prim,HTT prom inh
CC(C)(C)[N+]([O-])=Cc1ccc(S(=O)(=O)O)cc1S(=O)(=O)O,·,-6%
Cc1c(CCC(=O)N2CCCCC2)c(=O)oc2cc3occ(C(C)(C)C)c3cc12,?,-10%

(next part)
mol,PMP22 txn prim,HTT prom inh
O=c1c2cccnc2n(Cc2ccc(Cl)cc2)c(=O)n1Cc1ccc(F)cc1,?,8%
COC(=O)c1nnn(-c2ccc(Cl)cc2)c1C(=O)OC,-33%,3%
COC(=O)c1ccc(Cn2c(SCc3cccc(C)c3)nc3ccncc32)cc1,-9%,-4%
Cc1ccc(C)c(CN2CCC(CNC(=O)C(CC(C)C)N3Cc4ccccc4C3=O)CC2)c1 (configuration not stated),?,-18%
CCOC(=O)CC(NC(=O)c1cc2cc(OC)ccc2oc1=O)c1ccc(OC)cc1 (configuration not stated),-3%,-1%
CCOC(=O)c1scc(-c2ccccc2)c1S(=O)(=O)Nc1ccccc1F,0%,-26%
COc1cccc(-c2ccnc3[nH]n(-c4ccccc4)c(=O)c23)c1,?,26%
Cc1cccc(C(=O)Nc2c(-c3ccccc3)nc3cc(C)ccn23)c1,12%,14%
COc1ccc(CNC(=O)Cn2c(=O)n3nc(-c4ccc(OC)cc4)nc3c3ccccc32)cc1,-18%,24%
CC(CCc1ccccc1)NC(=O)CSc1n[nH]c(-c2ccccc2)n1 (configuration not stated),-11%,?
COc1ccc(Cl)cc1NC(=O)CSc1nc(=O)[nH]c2c1CCC2,?,-26%
COc1ccc(N(CC(=O)Nc2cccc(Cl)c2C)S(=O)(=O)c2c(C)nn(C)c2C)cc1,-19%,-25%
COc1ccccc1CNc1ccc(-c2nc(-c3ccncc3)no2)cc1[N+](=O)[O-],-9%,-9%
CCOc1ccc(N(CC)S(=O)(=O)N2CCCC(C(=O)Nc3cc(Cl)ccc3C)C2)cc1 (configuration not stated),?,?
COc1ccc(-c2cc(C(=O)Nc3c(C(=O)c4ccc(Cl)cc4)oc4ccccc34)no2)cc1,-8%,-5%
Cc1ccnc(NS(=O)(=O)c2ccc(NC(=O)C(C)(C)Oc3ccc(Cl)cc3)cc2)n1,3%,-13%[11.5 µM]
CC(C)(C)c1ccc(C(=O)N2CCC(c3noc(-c4ccc(S(=O)(=O)N5CCCC5)cc4)n3)CC2)cc1,?,?
COC(=O)C1CCN(C(c2ccccc2)c2sc3nc(-c4ccco4)nn3c2O)CC1 (configuration not stated),40%,-8%
O=C(O)CCC=CCC[C@@H]1[C@H](N2CCCCC2)[C@@H](O)C[C@@H]1OCc1ccc(-c2ccccc2)cc1,·,8%
CCOC(=O)c1c(-c2ccccc2)csc1NC(=O)c1nc(S(=O)(=O)CC)ncc1Cl,4.5µM*,?
Cc1ccc(OCC(=O)Nc2ccc3nc(SCC(=O)N4CCCC4)sc3c2)cc1,-10%,19%
COc1cccc(N2CCN(C(=O)c3ccc(CS(=O)c4cccc(Cl)c4)o3)CC2)c1 (configuration not stated),5µM*,?
COc1cccc(C(=O)N2CCC(C(=O)Nc3cccc(Cl)c3)CC2)c1,13%,-21%
CCOC(=O)c1cccc(NC(=O)Cn2nc3c(cc2=O)CCCC3)c1,-12%,-5%
CN(C)c1ccc(C(CNC(=O)c2ccccc2F)N2CCc3ccccc32)cc1 (configuration not stated),?,55%[activator]
CC(=O)c1ccccc1NS(=O)(=O)c1cc2c(cc1C)NC(=O)CO2,18%,15%
CCS(=O)(=O)N1CCc2cc(C(=O)N3CCN(c4cccc(C(F)(F)F)c4)CC3)ccc21,?,?
CC(=O)N1CCC(N(C(=O)Nc2ccc(C)c(F)c2)C(C)C)CC1,18%,52%[activator]
O=C(Cn1cccc1C(=O)c1ccccc1)NCc1ccccc1Cl,18%,24%
Cc1ccc(Nc2ccc3cc(S(=O)(=O)N4CCC(C)CC4)ccc3n2)c(Cl)c1,?,?
O=C(Nc1ccccc1C(=O)OCc1cc(=O)n2ccsc2n1)c1cccc(F)c1,-27%,?
COc1cccc(CNC(=O)c2ccc3nc(N4CCCCC4)sc3c2)c1OC,3%,?
CCS(=O)(=O)c1ncc(N(Cc2ccco2)Cc2sccc2C)c(C(=O)Nc2ccc(C)cc2C)n1,?,-14%
CCOc1ccc(NC(=O)CN(c2ccccc2OCC)S(=O)(=O)c2ccccc2)cc1,?,-21%[11.5 µM]
COc1cccc(NC(=O)Cn2c(=O)n(Cc3ccc(F)cc3)c(=O)c3sc4ccccc4c32)c1,?,-17%
Cc1ccc(Cl)cc1N1CCN(S(=O)(=O)c2ccc3[nH]c4c(c3c2)CCCCC4)CC1,-28%,-25%
O=C(c1cncc(Br)c1)N1CCC(N2CCCC2)CC1,·,6%

Only part of the results is shown, so the mix of outcomes need not match the whole.
